Screening data from PubChem.
2A firefly: lowers the firefly signal of an FMDV 2A StopGo reporter. AID 1745856. Potency, µM (doses to about 57.5 µM), without a hit: at the highest dose signal change, negative = less light. HEK cells with a luciferase reporter of 2A StopGo recoding. 120,000 tested, 0.23% active; active = well fitted falling curve with a large enough effect; inconclusive = small, poorly fitted or top-dose-only effect; inactive = no such curve, though single readings can be large or run the other way; note: nearly all actives have a fitted effect of over 60% in size; overnight with compound
StopGo RLuc: lowers the Renilla signal of an FMDV 2A StopGo reporter; HEK cells with a luciferase reporter of 2A StopGo recoding; Potency, µM (series often up to 57.5 µM), inactives show at the highest dose signal change, negative = less light; 120,000 tested, 0.32% active; active means well fitted falling curve with a large enough effect; inconclusive means small, poorly fitted or top-dose-only effect; inactive means no such curve, though single readings can be large or run the other way; note: nearly all actives have a fitted effect of over 55% in size; overnight with compound
The depositor's hits bear a star; ? = inconclusive; & = joins results of further samples; [ ] = another dose, or the depositor's remark. % is set by controls: 0 for no effect and ±100 for the full control effect; potency is the fitted concentration of half-maximal effect.

SMILES | 2A firefly | StopGo RLuc
CC1=C(C(=O)OC2CCCC2)C(c2ccc(F)cc2F)CC(=O)N1 (stereo not drawn) | -12% | 4%
COc1cccc(CNC(=O)c2cnc3sc(N4CCCC4)nn3c2=O)c1OC | -17% | -10%
COc1ccc(CCNC(=O)c2ccc(N3C(=O)CCS3(=O)=O)cc2)cc1 | -4% | -11%
Cc1ccc(CNC(=O)CSc2n[nH]c(N)n2)cc1 | 14% | 11%
Cc1cccc(C(=O)N(Cc2ccco2)Cc2ccccc2F)c1 | -16% | 26%
Cc1ccc(N2CC(c3nnc(Cc4ccc(F)cc4Cl)o3)CC2=O)cc1 (stereo not drawn) | -17% | -4%
O=C(Nc1cccc(F)c1)c1ccc2c(c1)CC(c1ccc(F)cc1)OC2=O (stereo not drawn) | -6% | -9%
CC(C)(C)c1ccc(S(=O)(=O)n2cnc3ccccc32)cc1 | ? | ?
Cc1ccc(N2CCN(c3cnn(-c4nc5ccccc5s4)c(=O)c3Cl)CC2C)cc1 (stereo not drawn) | ? | -2%
COc1cc(Br)c(/C=N/O)cc1OC | 6% | 14%
Oc1ccc(-c2nc(-c3ccc(Cl)cc3)cs2)cc1 | 206%[activator] | -2%
CCOc1ccccc1NC(=O)N(C)CCc1c(C)nn(CC)c1C | 27% | 9%
Oc1c(C=Nc2ccc(Cl)c(C(F)(F)F)c2)ccc2ccccc12 | 0% | 0%
COc1ccc(Nc2nnc(-c3ccc(C)c(S(N)(=O)=O)c3)c3ccccc23)cc1 | 11% | 337%[activator]
O=C(COCc1cc(-c2cccs2)on1)NCCN1CCCCCC1 | -7% | -19%
COc1cc2c(cc1OC)CN(C(=O)CCCN(C)S(=O)(=O)c1ccc(F)cc1)CC2 | ? | ?
COC(=O)CC1CCNCC1 | 12% | -3%
c1ccc(-n2ncc3c(Nc4ccc5c(c4)OCO5)nc(NCC4CCCO4)nc32)cc1 (stereo not drawn) | 23% | 0%
O=C(OCC(=O)C12CC3CC(CC(C3)C1)C2)c1cc(F)c(F)cc1Cl | 10% | 5%
CC(=O)N1CCC(C(=O)NCCc2ccccc2C(F)(F)F)CC1 | -8% | -8%
Cc1cccc(NC(=O)Cc2nc(-c3c(N)n(Cc4ccccc4)c(=O)n(C)c3=O)cs2)c1 | -8% | -10%
Cc1cccc(Cn2cc(C(=O)Nc3ccc(S(N)(=O)=O)cc3)ccc2=O)c1 | -6% | 1%
Cc1ccc(C2=CC(c3ccc(F)cc3)n3nnnc3N2)cc1 (stereo not drawn) | 30% | -4%
CN1CCC(OC(=O)Cc2ccccc2)CC1 | 9% | 4%
CCOC(=O)CSc1nnc2n(CC)c(=O)c3c(n12)-c1ccccc1CC31CCCCC1 | -8% | -9%
COc1ccc(-c2oc3ncn4nc(-c5ccccc5Cl)nc4c3c2-c2ccc(OC)cc2)cc1 | -15% | -11%
CCC1CCCCN1CCCNC(=O)CN1C(=O)CSc2ccc(S(=O)(=O)N3CCOCC3)cc21 (stereo not drawn) | -15% | -4%
CCOc1ccccc1NC(=O)C(CC(C)C)NS(=O)(=O)c1ccc2c(c1)oc(=O)n2C (stereo not drawn) | 0% | 0%
Cc1cccc(N2CCN(C(=O)c3oc(=O)c4ccccc4c3-c3ccccc3)CC2C)c1 (stereo not drawn) | -2% | 51%[activator]
COc1ccccc1NC(=O)c1c(C)cc(C)nc1SCC(=O)c1ccc(Cl)cc1 | -11% | -11%
Cc1cccc(N2CCN(C(=O)CN3C(=O)COc4ccc(S(=O)(=O)N5CCCC5)cc43)CC2)c1C | 3% | -2%
COc1ccccc1-n1cc(C(=O)c2cc(Cl)ccc2O)cc(C#N)c1=O | -1% | 91%[activator]
O=C(Nc1nonc1-c1ccc2c(c1)CCCC2)c1cc(=O)c2cc(Cl)ccc2o1 | 1% | -4%
Cc1ccc2c(c1)N(C(=O)N1CCC(C(=O)NCc3ccccc3F)CC1)CC(C)O2 (stereo not drawn) | -9% | 10%
CCc1ccccc1NC(=O)C1COc2ccccc2C1 (stereo not drawn) | 3% | -8%
CCOC(=O)c1noc2nc(C)n(CC(=O)Nc3cc(Cl)ccc3OC)c(=O)c12 | -6%&-18% | -13%&3%
O=C(CCc1nc2cccnc2n1-c1ccccc1)Nc1ccc(Cl)c(Cl)c1 | -16% | -12%
COc1ccc2oc(=O)c(-c3ccccc3)c(C)c2c1 | 42%[activator] | 10%
CCn1cc(C(=O)N2CCN(c3cc(Cl)ccc3C)CC2)c(=O)c2cc(S(=O)(=O)N3CCCC3)ccc21 | -21% | -11%
Cc1ccc(NS(=O)(=O)c2c(C)nc3sccn3c2=O)c(Cl)c1 | 6% | 100%[activator]

At a glance, part of the list above.
SMILES | 2A firefly | StopGo RLuc
CN1CCC(OC(=O)Cc2ccccc2)CC1 | 9% | 4%
CCOC(=O)CSc1nnc2n(CC)c(=O)c3c(n12)-c1ccccc1CC31CCCCC1 | -8% | -9%
COc1ccc(-c2oc3ncn4nc(-c5ccccc5Cl)nc4c3c2-c2ccc(OC)cc2)cc1 | -15% | -11%
CCC1CCCCN1CCCNC(=O)CN1C(=O)CSc2ccc(S(=O)(=O)N3CCOCC3)cc21 (stereo not drawn) | -15% | -4%
CCOc1ccccc1NC(=O)C(CC(C)C)NS(=O)(=O)c1ccc2c(c1)oc(=O)n2C (stereo not drawn) | 0% | 0%
Cc1cccc(N2CCN(C(=O)c3oc(=O)c4ccccc4c3-c3ccccc3)CC2C)c1 (stereo not drawn) | -2% | 51%[activator]
COc1ccccc1NC(=O)c1c(C)cc(C)nc1SCC(=O)c1ccc(Cl)cc1 | -11% | -11%
Cc1cccc(N2CCN(C(=O)CN3C(=O)COc4ccc(S(=O)(=O)N5CCCC5)cc43)CC2)c1C | 3% | -2%
COc1ccccc1-n1cc(C(=O)c2cc(Cl)ccc2O)cc(C#N)c1=O | -1% | 91%[activator]
O=C(Nc1nonc1-c1ccc2c(c1)CCCC2)c1cc(=O)c2cc(Cl)ccc2o1 | 1% | -4%
Cc1ccc2c(c1)N(C(=O)N1CCC(C(=O)NCc3ccccc3F)CC1)CC(C)O2 (stereo not drawn) | -9% | 10%
CCc1ccccc1NC(=O)C1COc2ccccc2C1 (stereo not drawn) | 3% | -8%
CCOC(=O)c1noc2nc(C)n(CC(=O)Nc3cc(Cl)ccc3OC)c(=O)c12 | -6%&-18% | -13%&3%
O=C(CCc1nc2cccnc2n1-c1ccccc1)Nc1ccc(Cl)c(Cl)c1 | -16% | -12%
COc1ccc2oc(=O)c(-c3ccccc3)c(C)c2c1 | 42%[activator] | 10%
CCn1cc(C(=O)N2CCN(c3cc(Cl)ccc3C)CC2)c(=O)c2cc(S(=O)(=O)N3CCCC3)ccc21 | -21% | -11%
Cc1ccc(NS(=O)(=O)c2c(C)nc3sccn3c2=O)c(Cl)c1 | 6% | 100%[activator]

Remaining list, next part:
SMILES | 2A firefly | StopGo RLuc
O=C(CCC1CCCCC1)NCC1CCCO1 (stereo not drawn) | 23% | 1%
CC1(C)CC(C)(c2ccc(O)cc2)c2ccccc2O1 (stereo not drawn) | -8% | -1%[1.06 µM]
COc1ccc(-c2nc(NCCN3CCC(C)CC3)c3ccccc3n2)cc1 | 41%[activator] | -1%
Cc1cccc(-c2nc3c4ccccc4nc(N4CCN(c5ccc(F)cc5)CC4)n3n2)c1 | 10% | 4%
COc1ccccc1N1CCN(S(=O)(=O)c2c(C)sc3ncn(CC(=O)Nc4ccc(C(F)(F)F)cc4)c(=O)c23)CC1 | -15% | 1%
CCOC(=O)N1CCN(C(=O)[C@H](C)NC(=O)c2cc3c(OC)cc(OC)cc3n2C)CC1 | 0% | 5%
COc1ccc(N2CCN(CCCNC(=O)c3ccc4nc(CCc5ccccc5)oc4c3)CC2)cc1 | 55%[activator] | 5%
CCC(=O)Nc1ccc(C(C)NCc2ccsc2)cc1 (stereo not drawn) | -8% | -4%
O=C(Cc1nc(-c2c[nH]c(C(=O)N3CCCC3)c2)cs1)NCc1ccccc1 | 0% | 50%[activator]
CCOc1ccc(OCC)c(Nc2nc3ccc(Cl)cc3n3cnnc23)c1 | 11% | -9%
CCNC(=O)NC(=O)C(C)N1CCN(C(=O)Cc2c[nH]c3ccccc23)CC1 (stereo not drawn) | -10% | -9%
O=C(CSc1ccc(Cl)cc1)Nc1ccc2c(c1)OCCCO2 | 0% | 1%
Cc1ccc(CCNc2nc3c(S(=O)(=O)c4ccccc4)nnn3c3ccsc23)cc1 | -24% | 20%
Cc1c(-c2ccccc2)c(=O)oc2cc(OC(=O)N3CCOCC3)ccc12 | 164%[activator] | 9%
CC(C)N1Cc2nnn(Cc3ccccc3)c2-c2cc(F)ccc2S1(=O)=O | 9% | 109%[activator]
O=C(NC1CC(=O)N(c2ccc(Cl)cc2)C1)c1ccc2c(c1)OCO2 (stereo not drawn) | -19% | -14%
O=C(COC(=O)c1c[nH]c2ccccc12)NC(=O)NC1CCCC1 | 25% | 10%
Cc1cc(-c2nnn(CC(=O)NC(C)(C)C)n2)ccc1F | 181%[activator] | 36%[activator]
CCc1c(C(C)=O)oc2ccc(C)cc12 | -10% | -9%
Cc1ccc2oc(SCc3noc(CCC(=O)Nc4ccc(C(F)(F)F)cc4)n3)nc2c1 | 26% | -1%
Cc1nc(Cc2nn3c(-c4ccc(F)c(Br)c4)nnc3s2)cs1 | 8% | -29%
CCOC(=O)c1c(C)[nH]c(C)c1S(=O)(=O)N1CCC(C(=O)Nc2cc(Cl)ccc2OC)CC1 | 2% | 280%[activator]
Cc1cccc(OCC(=O)Nc2ccccc2SCc2cc(=O)n3c(ncn3C(C)C)n2)c1C | 9% | 10%
Cc1ccccc1/C=N/NC(=O)c1cccs1 | 188%[activator] | 37%[activator]
COc1cccc(Nc2nc(-c3ccc(CNC(C)=O)s3)cs2)c1 | 87%[activator] | -15%
CC(Oc1cccc(Br)c1)c1nc(-c2ccncc2)no1 (stereo not drawn) | 23% | 9%
CN(C)C(=O)COC(=O)Cc1ccc(OC(=O)c2ccc(N=C(N)N)cc2)cc1 | 0%[11.5 µM] | 4%
N#Cc1ccc(OCc2nc(-c3ccc(Br)o3)no2)cc1 | 47%[activator] | 19%
CCC(=O)C1=C(c2ccc(Cl)cc2)N(C(=O)CC)n2c(C)nnc2S1 | -3% | -7%
Cc1ccc(C)c(C(=O)c2sc(Nc3ccccc3)nc2N)c1 | 21% | -16%
COc1ccc(-c2nc3ccccc3s2)cc1NC(=O)COc1cccc(C)c1 | 86%[activator] | -10%
Cc1cccc(N2CCN(C(=O)c3cn(CC(C)C)c(=O)c4c3c3ccccc3n4C)CC2)c1C | -11% | -10%
COCCn1ccc2c(OCC(=O)Nc3cccc(OC)c3)cccc2c1=O | -3% | 21%
CCc1nc(NCCCO)c(C#N)c2c1CCCC2 | -4% | -15%
O=C(NNC(=O)C1CCCC1)c1ccc(Cl)cc1 | 0% | 94%[activator]
CCc1ccc(CNC(=O)c2nnn(-c3ccc(C)c(F)c3)c2C)cc1 | 0% | 3%
CC(O)CNS(=O)(=O)c1ccc(C(C)(C)C)cc1 (stereo not drawn) | 23% | 0%
COc1ccccc1-c1nnc(SCc2nnc(C)o2)n1CCc1ccccc1 | -11% | -7%
COc1ccc(-c2nc(C)c(CCNS(=O)(=O)c3cc(Cl)ccc3Cl)s2)cc1 | 71%[activator] | 385%[activator]
Cc1cccc2nc(-c3ccc(N(C)C)cc3)c(Nc3ccc4c(c3)OCO4)n12 | 20% | 5%
O=c1c2sc3ccccc3c2n(Cc2cccc(C(F)(F)F)c2)c(=O)n1-c1ccccc1 | 5% | 4%
COc1cc2c(cc1NC(=O)C(C)Oc1ccccc1)oc1ccccc12 (stereo not drawn) | 82%[activator] | -5%
Cc1ccc(NC(=O)CCCc2nc3ccccc3o2)c(C)c1 | 53%[activator] | -4%
CCc1ccc(C(=O)c2cn(CC(=O)Nc3cc(OC)ccc3OC)c3nc(C)ccc3c2=O)cc1 | 21% | 3%
Nc1nc(CN2CCN(C(=O)c3ccc(Cl)cc3)CC2)nc2ccccc12 | -9% | -21%
COc1ccc2c(=O)c(-c3ccccc3)coc2c1C | 76%[activator] | 31%
Cc1nn2c(C)c(C(=O)N3CCN(c4ccccc4F)CC3)cnc2c1-c1ccc(F)cc1 | -19% | -11%
O=C(CSc1nnc(-c2ccccc2)o1)N1CCCc2ccccc21 | 16% | 12%
Cc1ccc(CCNC(=O)CN2C(=O)COc3ccc(S(=O)(=O)N4CCCC4)cc32)cc1 | 0% | 54%[activator]
CCOC(=O)c1cnc(Nc2ccc(C)c(F)c2)c2ccccc12 | 75%[activator] | 32%
CCN(CC)c1nc2ccccc2nc1C(=O)Nc1ccc(C)c(C)c1 | 16% | 9%
Cc1ccc(Nc2cc(C)nc3nc(-c4ccco4)nn23)c(Cl)c1 | 60%[activator] | 45%[activator]
CCOC(=O)c1cnc2c(ccc3ccccc32)c1Nc1ccccc1O | 13% | 4%
COc1cccc(OCc2nc3ccccc3n2CCOc2ccccc2C)c1 | 14% | 3%
CCOC(=O)c1cccc(NC(=O)CS(=O)(=O)Cc2nc(-c3ccccc3C)oc2C)c1 | -8% | 3%
Cn1c(SCc2csc(-c3ccccc3)n2)nnc1C1CC1 | 50%[activator] | 28%
Cc1cc(C)c2oc(C(=O)Nc3cccc(Cl)c3C)cc(=O)c2c1 | -2% | -4%
Cc1ccc(NC(=O)Cn2c(=O)n(CC3CCCO3)c(=O)c3ccccc32)cc1 (stereo not drawn) | -8% | -10%

Complete entries, quoted from the list. Order of values: 2A firefly, StopGo RLuc
COc1ccccc1-n1cc(C(=O)c2cc(Cl)ccc2O)cc(C#N)c1=O as listed: -1%, 91%[activator]
COc1cccc(CNC(=O)c2cnc3sc(N4CCCC4)nn3c2=O)c1OC as listed: -17%, -10%
